Compound activity from PubChem BioAssay.
Menin MLL FP FL = qHTS Assay for Inhibitors Targeting the Menin-MLL Interaction in MLL Related Leukemias: Competition With Fluorescein Labeled MLL-derived Peptide; Fluorescence polarization, fluorescein-MLL peptide displacement from menin; FP activity change, % at 61.4 µM; 290,000 tested, under 10 active; AID 1766, 2009; inconclusive = falling polarisation curve, or a change in total fluorescence; inactive = total fluorescence flat and polarisation flat or rising; no compound was filed as active; the % refers to the polarisation; negative = inhibition;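 note: % of control where 0% means no effect; inhibitors lower the polarisation; unlabelled MLL peptide was the positive control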
gsp antagonist = qHTS for Antagonists of gsp, the Etiologic Mutation Responsible for Fibrous Dysplasia/McCune-Albright Syndrome: qHTS | gsp-mutant cells, cAMP HTRF, 30 min; control for the full effect not named in the record | AID 624288, 2012 | Potency, µM (titrated, usually from 76.9 µM), for inactives: at the top dose activity change, negative = inhibition, usual class: inhibitors | 0.4% of 340,000 active; active = falling curve of any shape with a large fitted effect; inconclusive = falling curve, mostly with a smaller effect; inactive = flat or rising curve; cell line not stated here;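 note: intracellular cAMP measured with PDE inhibitor Ro 20-1724 present during compound exposure; potency is the fitted concentration of half-maximal effect; % is set by controls: 0 for no effect and ±100 for the full control effect; nearly all actives have a fitted effect of over 65% in size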
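HTRF cAMP read-out (cAMP-d2 plus anti-cAMP antibody-K in lysis buffer, 30 min RT). Before lysis, cells are exposed to compounds with […] for 30 min at 37C in DPBS containing Ca/Mg, BSA and Tween 20.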
CtBP-E1A inh = qHTS Assay for Inhibitors of the CtBP/E1A Interaction | CtBP / adenovirus E1A interaction (AlphaScreen) | AlphaScreen GST-E1A/His-CtBP binding, 1536-well; active compounds read low; control for the full effect not named in the record | activity change, % (no concentration beside the values) | 0.49% of 340,000 active | AID 651724, 2012; in the data active means activity change below about -65%; inconclusive means about -30% to -65%; inactive means above about -30%; note: % is set by controls: 0 for no effect and ±100 for the full control effect
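Protein mix (5X: 125 nM each GST-E1A, His-CtBP) was incubated with pinned compound 2 h at 37 deg C in dark, in 50 mM Tris pH 8.0 buffer with 300 mM NaCl. Glutathione donor and nickel acceptor beads followed; AlphaScreen signal read after 1 h.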
gsp ag = qHTS for Agonist of gsp, the Etiologic Mutation Responsible for Fibrous Dysplasia/McCune-Albright Syndrome: qHTS; 0.13% of 340,000 active; Potency, µM (highest dose often 76.9 µM), without a hit: at the highest dose activation (cAMP increase), usual class: activators; gsp mutant cells, cAMP HTRF, 30 min; control for the full effect not named in the record; active = well fitted activation curve with a large enough effect; inconclusive = small, poorly fitted or top-dose-only effect, or another doubt; inactive = no such curve, though single readings can be large or run the other way; cell line not stated here;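 note: phosphodiesterase inhibitor Ro 20-1724 added with compounds to block cAMP breakdown; potency is the fitted concentration of half-maximal effect; nearly all actives have a fitted effect of over 60% in size; about a fifth of the inactives were tested at one dose only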
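Cells in DMEM/10% FBS with G418 were pretreated with compounds in DMSO plus […] (300 uM stock) for 30 min at 37C. cAMP was measured by HTRF (cAMP-d2 plus anti-cAMP antibody-K) after 30 min at room temperature.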
TRPV1 potentiator = HTS Assay for Compounds that Act as Potentiators of the Vanilloid Receptor 1. Transient receptor potential cation channel subfamily V member 1 (Homo sapiens), Q8NER1. 0.02% of 320,000 active. potentiation, % at 8.33 µM. TRPV1-expressing cells, Fluo-8 calcium influx, capsaicin EC20 potentiation; host cell line not named in the record; control for the full effect not named in the record. AID 540277, 2011; active means potentiation above 80%; inconclusive means 30% to 80%; inactive means below 30%; note: 0% is about no effect
Target sequence (Q8NER1 whole entry, looked up): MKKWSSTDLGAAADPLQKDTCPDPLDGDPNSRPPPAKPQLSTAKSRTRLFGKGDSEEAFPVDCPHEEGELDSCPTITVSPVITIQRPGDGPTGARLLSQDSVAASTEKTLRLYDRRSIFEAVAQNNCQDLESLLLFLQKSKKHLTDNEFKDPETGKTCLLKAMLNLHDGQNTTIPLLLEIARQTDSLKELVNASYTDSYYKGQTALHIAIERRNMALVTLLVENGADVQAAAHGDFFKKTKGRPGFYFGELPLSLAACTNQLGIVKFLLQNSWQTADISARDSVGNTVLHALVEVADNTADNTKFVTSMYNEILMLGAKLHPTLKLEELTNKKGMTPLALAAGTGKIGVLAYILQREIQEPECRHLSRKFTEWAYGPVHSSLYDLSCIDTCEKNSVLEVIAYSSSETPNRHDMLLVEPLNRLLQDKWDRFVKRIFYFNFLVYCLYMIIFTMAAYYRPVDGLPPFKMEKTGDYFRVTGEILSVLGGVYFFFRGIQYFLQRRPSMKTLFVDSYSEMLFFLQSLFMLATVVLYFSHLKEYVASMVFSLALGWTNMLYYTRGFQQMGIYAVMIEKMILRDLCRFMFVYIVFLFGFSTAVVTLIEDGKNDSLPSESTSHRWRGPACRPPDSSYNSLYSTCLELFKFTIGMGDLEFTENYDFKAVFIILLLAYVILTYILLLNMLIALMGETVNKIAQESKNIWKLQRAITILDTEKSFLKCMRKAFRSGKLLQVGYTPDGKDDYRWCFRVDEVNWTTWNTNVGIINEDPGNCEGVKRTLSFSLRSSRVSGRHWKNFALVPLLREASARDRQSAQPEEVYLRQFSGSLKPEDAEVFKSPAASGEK
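Cells expressing TRPV1 were dye-loaded with Fluo-8 and read kinetically: 10 s baseline, 3 min after compound (agonist portion), then 2 min after EC20 capsaicin (allosteric enhancer portion). Calcium-bound dye fluorescence at 480/520 nm.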
Sfp inh = qHTS Assay for Inhibitors of Bacillus subtilis Sfp phosphopantetheinyl transferase (PPTase). 3.5% of 310,000 active. Biochemical Sfp PPTase activity, qHTS. Potency, µM, inactives show max response, negative = inhibition, actives largely listed as inhibitors; active = well fitted inhibition curve with a large enough effect; inconclusive = small, poorly fitted or top-dose-only effect, or another doubt; inactive = no such curve, though single readings can be large or run the other way;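 note: the enzyme is Sfp with the accession as filed and its product quenches rhodamine fluorescence; potency is the fitted concentration of half-maximal effect; 0% = enzyme reaction without inhibitor and -100% = no enzyme wells; top concentration of the series not given in the record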
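Fluorescence-quenching assay: 15 nM Sfp-PPTase preincubated 15 min at room temperature with compound, then 5 uM rhodamine-CoA and 12.5 uM BHQ-2-labelled YbbR peptide added. Fluorescence (ex 525/em 598 nm) read at start and after 30 min; difference gives rate.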
ClpP mod = qHTS Assay for Activators of ClpP; ATP-dependent Clp protease proteolytic subunit (Bacillus subtilis (strain 168)), P80244; purified B. subtilis ClpP, FRET peptide cleavage, 20 min; Potency, µM (titrated, usually from 57.5 µM), for inactives: top-dose activity change, negative = active; 1.9% of 340,000 active; AID 651965, 2013; active = well fitted falling curve with a large enough effect; inconclusive = small, poorly fitted or top-dose-only effect; inactive = no such curve, though single readings can be large or run the other way; note: potency is the fitted concentration of half-maximal effect; the source files actives as falling curves though it sought activators and does not explain the sign; nearly all actives have a fitted effect of over 65% in size; many hits overshoot -100%
Target sequence (P80244 whole entry, looked up): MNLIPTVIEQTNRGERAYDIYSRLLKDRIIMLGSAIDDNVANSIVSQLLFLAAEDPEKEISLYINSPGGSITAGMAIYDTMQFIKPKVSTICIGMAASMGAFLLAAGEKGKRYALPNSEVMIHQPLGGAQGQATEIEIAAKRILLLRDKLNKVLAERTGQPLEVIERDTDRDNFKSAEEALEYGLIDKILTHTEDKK
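FRET quenching reversal measured ClpP activation: 10 microg/mL B. subtilis ClpP at pH 8 with the FRET-FV decapeptide, read at 430 nm after 320 nm excitation. The 20-min minus 0-min signal was scaled between DMSO/no-enzyme wells and ADEP (5.8 microM final).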
Numbers without * were called inactive; u = inconclusive; x = no result given; [ ] = dose if it differs, or a comment.

#	canonical_smiles	Menin MLL FP FL	gsp antagonist	CtBP-E1A inh	gsp ag	TRPV1 potentiator	Sfp inh	ClpP mod
1	CCc1nc2ccc(C(=O)N3CCN(c4cc(C)ccc4C)CC3)cc2nc1CC	-0.9	-13%	-1	u	3	u	u
2	C/C(=N\Nc1ccc2nncn2n1)c1ccc(Br)s1	-1.8	-3%	-15	-22%	-10	-15%	x
3	O=C(Nc1nc(-c2ccccc2)cs1)c1ccccc1NS(=O)(=O)c1ccc(F)cc1	-1.5	u	-2	u	19	-3%	u
4	COc1ccc(N2CCN(C(=O)C3CCN(C(=O)c4ccccc4Cl)CC3)CC2)cc1	-0.2	0%	4	-26%	5	22%	x
5	CC(=O)c1cccc(NC(=O)CC2CCCC2)c1	3.8	0%	10	3%	-9	9%	x
6	CN(CC1COc2ccccc2O1)C(=O)CSc1ncnc2sccc12 (centres undefined)	x	-5%	5	1%	-9	x	1.2%
7	O=C(Nc1ccc([N+](=O)[O-])cc1)Nc1ccc(N2CCOCC2)c2nonc12	0.6	7%	x	-20%	5	-14%	-1.9%
8	N/C(=N\OC(=O)c1ccc(Cl)cc1Cl)c1cccnc1	-0.7	7%	x	-31%[inhibitor]	2	-9%	0.1%
9	Cc1nnc(SCc2c(Cl)cccc2Cl)n(N)c1=O	-0.7	-6%	0	-21%	-2	15%	x
10	CC(=O)O[C@H](COc1c2ccoc2cc2oc(=O)ccc12)C(C)(C)O	x	-3%	5	x	5	x	4.4%
11	C[C@@H]1CN([C@@H](C)CO)C(=O)CCCn2nncc2CO[C@@H]1CN(C)C(=O)Nc1ccc(C(F)(F)F)cc1	x	x	5	u	x	x	2.3%
12	CCCCOC(=O)c1sc2nc(C)cc(C)c2c1N	1.3	-14%	37	-3%[15.4 µM]	-4	-9%	x
13	CCCN1CCN(C(=O)C2CCN(S(=O)(=O)c3ccc4c(c3)NC(=O)C(C)S4)CC2)CC1 (centres undefined)	x	12%	-1	-52%[inhibitor]	3	12%	2.7%
14	CCOc1cc(C2C(C#N)=C(N)OC(C)=C2C(C)=O)c(Br)c(Br)c1OC(C)C (centres undefined)	-1.3	8%	-7	-36%[inhibitor]	14	-9%	-17%
15	O=S1(=O)N=C2CCCCCN2C(c2ccncc2)N1 (centres undefined)	1.1	-7%	6	8%	1	3%	-1.0%
16	O=C(NCc1ccco1)NC(=O)c1csc([N+](=O)[O-])c1	0.9	4%	-7	-3%[15.4 µM]	-2	-9%	-2.2%
17	CCOC(=O)c1ccc(N2CCOCC2)c(NC(=O)c2ccc3c(c2)OCO3)c1	-1.3	-16%	-3	6%[15.4 µM]	-15	6%	-0.9%
18	O=C(Cn1nnc(-c2cccs2)n1)NCCc1ccccc1	3.0	9%	3	5%	3	-4%	-0.7%
19	O=C1N/C(=C\c2ccc(O)cc2)C(=O)c2ccccc21	u	u	6	9%	11	-77%	-0.7%
20	COc1ccccc1NC(=O)c1cc(S(=O)(=O)N2CCC3(CC2)OCCO3)ccc1F	1.3	u	2	u	-6	7%	0.1%
21	COc1ccc(NC(=O)CSc2nncn2C)c([N+](=O)[O-])c1	-0.5	7%	5	-3%	9	16%	-1.5%
22	O=C(O)c1ccccc1Sc1ccccc1S(=O)(=O)NC1CCCCC1	-0.1	5%	4	8%[15.4 µM]	3	7%	x
23	CC(Nc1c([N+](=O)[O-])c(=O)oc2ccccc12)C(Cl)c1ccccc1 (centres undefined)	6.0	-18%	-12	-27%	4	11%	-1.4%
24	COc1cccc(CNC(=O)Cn2cc3c(n2)CCCCC3)c1	2.1	2%	-2	-22%	-12	4%	-1.5%
25	CC(=O)Nc1ccc(C(=O)COC(=O)c2nc3nc(C)cc(C)n3n2)cc1	x	13%	0	38%	8	x	-2.0%
26	CCOc1ccc(S(=O)(=O)Nc2ncn[nH]2)cc1	7.6	11%	6	-30%	-4	17%	x
27	COc1cc2nc(CN(C)CC(=O)Nc3ccc(N4CCOCC4)cc3)[nH]c(=O)c2cc1OC	-2.0	8%	u	-23%	u	3.5µM*	1.5%
28	CC(C)N1CCc2c(sc(NC(=O)CCS(=O)(=O)c3ccccc3)c2C(N)=O)C1	-0.6	9%	1	11%	8	-2%	-6.1%
29	Cc1c(N2C(=O)C(=O)/C(=C(/O)c3ccc(Cl)cc3)C2c2ccccc2)c(=O)n(-c2ccccc2)n1C (centres undefined)	9.7	26%	-9	27%	9	21%	0.7%
30	COc1ccc(Nc2ncc(F)c(N3CCOCC3)n2)cc1	-11	-7%	-13	-11%	-18	13%	-7.7%
31	CN1CCN(C2=Nc3c(Cl)cc(Cl)c4cccc2c34)CC1	u	-3%	x	-39%[inhibitor]	1	-22%	2.8%
32	COc1ccc(-c2nnc(SCC(=O)NC3CC3)o2)c(OC)c1	x	5%	0	-31%[inhibitor]	7	x	-4.3%
33	CC(C)(C)NC(=O)CN(Cc1cccs1)C(=O)CNS(=O)(=O)c1ccccc1	-1.8	2%	5	-5%	-3	9%	-1.0%
34	NS(=O)(=O)c1ccc(N=Cc2ccc(Br)s2)cc1	x	13%	3	-31%[inhibitor]	10	20%	-0.1%
35	CC(C)Sc1cc(Cl)nc(NC(=O)Nc2ccccc2)n1	2.4	-9%	0	15%	12	0%	-1.8%
36	CC(C)CNC(=O)CC(=O)N/N=C/c1ccc(F)cc1	1.7	-2%	-2	11%	-1	u	1.1%
37	COc1cc(SC)ccc1C(=O)NCCCOC(C)C	2.1	-9%	0	0%	8	14%	-0.8%
38	Fc1ccc(CNC(=S)NC2CCCCCC2)cc1	-1.7	x	-6	0%[15.4 µM]	-14	16%	x
39	Cc1sc2c(c1C)CN(CCN1CCOCC1)CN2C(=O)c1ccccc1	-0.7	7%	5	-14%	-4	-9%	x
40	COc1ccc2c(c1)[nH]c1c(=O)n(/N=C/C3C(C)C=C(C)CC3C)c(=O)[nH]c12 (centres undefined)	-3.9	-11%	-6	-5%[15.4 µM]	17	15%	x
41	Cc1ccc(C)n1C1CCS(=O)(=O)C1 (centres undefined)	0.7	-2%	2	0%	1	13%	-4.2%
42	O=C(CCN1C(=O)c2ccccc2S1(=O)=O)Nc1ccccc1	-2.2	-2%	x	13%	u	14%	-1.8%
43	COCCOC(=O)/C(=C\c1cc(C(C)(C)C)c(O)c(C(C)(C)C)c1)C(C)=O	5.6	-23%	-7	24%	-4	0%	-2.4%
44	CCCCNC(=O)c1onc(CSc2ccncc2)c1C(=O)NCCCC	-0.1	-13%	4	-4%	-7	15%	-0.9%
45	COc1ccc(/C=N/NC(=O)CSCC(=O)Nc2ccccc2)cc1OC	-1.3	9%	-4	-39%	3	8%	-9.5%
46	COc1ccc(NC(=O)COc2ccc3oc(=O)cc(C)c3c2)cc1	1.5	3%	-25	-2%[15.4 µM]	3	1%	-1.7%
47	COc1ccc(C(=O)Nc2ccc(S(=O)(=O)N3CCCCC3)cc2)cc1OC	2.5	-15%	u	-35%[inhibitor]	-3	4%	-3.9%
48	O=C(CN1CCCCCC1)Nc1cccc2c1OCO2	-0.2	5%	13	12%	5	-4%	4.0%
49	O=C(CNC(=O)c1cccs1)N/N=C/c1ccccc1[N+](=O)[O-]	0.5	7%	-6	4%	-6	12%	x
50	COc1cccc(/C=C/C(=O)OCC(=O)NCCC2=CCCCC2)c1OC	x	6%	-1	u	x	x	3.8%
51	CCCS(=O)(=O)N1CCc2ccc(NC(=O)C3CCCO3)cc2C1 (centres undefined)	3.1	9%	3	-7%	-6	7%	0.3%
52	Cn1nc(C(=O)O)c(=O)n(C)c1=O	x	2%	7	-7%	x	x	x
53	CCN(C(=O)COC(=O)C1CCN(S(=O)(=O)c2ccc(C)c(C)c2)CC1)C1CCS(=O)(=O)C1 (centres undefined)	x	-22%	3	4%	-22	x	1.3%
54	Cc1ccc(C(=O)CN2C(=O)NC3(CCOc4ccccc43)C2=O)s1 (centres undefined)	x	2%	x	-24%	-10	x	1.1%
55	C=CCn1c(SCC(=O)Nc2ccc(-c3nc4ccc(C)cc4s3)cc2)nnc1-c1ccccc1	2.6	24%	12	33%	-3	2%	16µM*
56	O=[N+]([O-])c1ccc(Sc2n[nH]c(-c3ccncc3)n2)nc1	-1.8	-2%	x	-43%	2	u	-2.0%
57	Cc1cccc(CCN2C(N(C)C)=NC[C@@H]2C)c1	x	13%	5	x	28	x	-0.5%
58	O=P(COCCO)(c1ccccc1)c1ccccc1	3.3	6%[15.4 µM]	3	-42%	-3	14%	0.7%
59	COC(=O)[C@]1(CC(C)C)N[C@H](c2ccc(SC3CCCCC3)cc2)[C@@H]2C(=O)N(C)C(=O)[C@@H]21	x	-15%	x	2%	x	x	-1.7%
60	Cc1ccc(S(=O)(=O)NCc2ccc(C(=O)NCCN(Cc3ccccc3)C(C)C)cc2)cc1	-2.4	-9%	-2	22%	-2	-11%	x

Going on with the list:
#	canonical_smiles	Menin MLL FP FL	gsp antagonist	CtBP-E1A inh	gsp ag	TRPV1 potentiator	Sfp inh	ClpP mod
61	C=CCNC(=O)CN1CCC(O)(c2ccc(F)cc2)CC1	3.2	4%	1	16%	2	2%	-3.3%
62	Cc1ccnc(NC(=O)CCC(=O)c2cccs2)c1	x	-4%	-6	-4%[15.4 µM]	12	x	x
63	COc1ccc(-c2cn3ccccc3n2)cc1OC	0.2	-10%	-3	0%	-2	89µM*	u
64	O=C(Nc1ccc(-n2cccn2)cc1)C1CCCCN1Cc1cccc2cccnc12 (centres undefined)	0.9	3%	-18	-18%	-8	-3%	-2.5%
65	O=C(c1cccc(S(=O)(=O)Nc2ccc(F)cc2)c1)N1CCCC1	x	3%	x	2%	5	x	1.1%
